Cruzain inh noDet = cruzain (T. cruzi) inhibition without detergent | Potency, µM, for inactives: max response, negative = inhibition, usual class: inhibitors | purified cruzain, Z-FR-AMC fluorescence, no detergent | P25779 | 2.3% of 200,000 active;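 note: plate controls were enzyme without inhibitor for no effect and buffer without enzyme for full effect; nearly all actives have a fitted effect of over 40% in size; top concentration of the series not given in the record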
Target sequence (P25779 123-467 limits assumed): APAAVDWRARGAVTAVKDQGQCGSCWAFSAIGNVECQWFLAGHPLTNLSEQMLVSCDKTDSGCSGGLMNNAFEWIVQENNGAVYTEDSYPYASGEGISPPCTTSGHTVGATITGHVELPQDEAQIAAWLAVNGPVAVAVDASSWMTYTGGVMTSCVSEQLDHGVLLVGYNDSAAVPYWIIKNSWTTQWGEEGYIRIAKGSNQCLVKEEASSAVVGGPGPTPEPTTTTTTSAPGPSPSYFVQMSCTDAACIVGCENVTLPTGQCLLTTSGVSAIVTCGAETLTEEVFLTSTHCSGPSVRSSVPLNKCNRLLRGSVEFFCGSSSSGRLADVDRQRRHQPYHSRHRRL
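Purified cruzain at 1.5 nM, pre-incubated 15 min with compound at room temperature in 100 mM sodium acetate pH 5.5, 5 mM DTT, 0.00005% Triton X-100. Reaction started with 2 uM Z-FR-AMC; AMC fluorescence increase over 60 s gives rate.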
Lassa entry inh = Lassa virus entry inhibition; Lassa virus pseudotype entry inhibition, cell reporter; control for the full effect not named in the record; Potency, µM (top dose mostly 37.9 µM), without a hit: top-dose activity change, negative = inhibition, hits mostly inhibitors; 1.2% of 300,000 active; active means well fitted inhibition curve with a large enough effect; inconclusive means small, poorly fitted or top-dose-only effect, or effect the other way; inactive means flat fitted curve, though single readings scatter; tested in HEK293 cells; note: % is set by controls: 0 for no effect and ±100 for the full control effect; nearly all actives have a fitted effect of over 50% in size; luciferase read-out
Marburg entry inh = blocks Marburg virus binding to or entry into cells. Potency, µM (doses to about 37.8 µM), for the others: top-dose activity change, negative = inhibition, actives largely listed as inhibitors. 1.8% of 300,000 active. Marburg virus pseudotyped entry inhibition, cell reporter; control for the full effect not named in the record; about a third of the inactives were read at about 46 µM; active = well fitted inhibition curve with a large enough effect; inconclusive = small, poorly fitted or top-dose-only effect, or effect the other way; inactive = flat fitted curve, though single readings scatter; tested in HEK293 cells; about a fifth of its hits are not listed in these tables; note: % is set by controls: 0 for no effect and ±100 for the full control effect; luciferase read-out
RE007 growth inh = less growth of the S. pombe RE007 Vpr strain; 0.21% of 360,000 active; Potency, µM (doses to about 92.2 µM), for inactives: at the top dose activity change, negative = less growth; AID 651644; S. pombe RE007 Vpr strain, BacTiter-Glo ATP luminescence, 24 h; control for the full effect not named in the record; active = well fitted falling curve with a large enough effect; inconclusive = small, poorly fitted or top-dose-only effect; inactive = no such curve, though single readings can be large or run the other way;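 note: % is set by controls: 0 for no effect and ±100 for the full control effect; nearly all actives have a fitted effect of over 50% in size; the assay follows cell death caused by Vpr and the record does not say whether a fall means rescue or toxicity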
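Fission yeast RE007 carrying one integrated HIV-1 vpr copy, seeded at OD 0.01 in PMG+AL medium with 23 nL pinned compound. Grown 24 h at 30 degrees; viability read by BacTiter-Glo luminescence after 5 min.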
NS1 function inh = blocks influenza NS1 protein function; 0.4% of 270,000 active; Potency, µM (top dose mostly 46.1 µM), for the others: top-dose activity, positive = more growth; AID 2326; S. cerevisiae slowed by influenza A NS1, growth recovery by OD600; active means well fitted rising curve with a large enough effect; inconclusive means small, poorly fitted or top-dose-only effect; inactive means no such curve, though single readings can be large or run the other way; note: nearly all actives have a fitted effect of over 50% in size
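A cell-based growth assay was used: compounds that relieve NS1-induced slow growth of budding yeast raise OD600. Assay medium was yeast nitrogen base with ammonium sulphate and -URA supplement, pH 6.0, with 2% galactose.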
SARS PLpro yeast = blocks SARS-CoV papain-like protease in a yeast assay; S. cerevisiae expressing SARS-CoV PLpro, growth rescue; control for the full effect not named in the record; Potency, µM (top dose mostly 32.9 µM), inactives show top-dose activity, positive = growth rescue; 0.19% of 330,000 active; AID 485353; active means well fitted rising curve with a large enough effect; inconclusive means small, poorly fitted or top-dose-only effect; inactive means no such curve, though single readings can be large or run the other way; note: 0% is about no effect; nearly all actives have a fitted effect of over 55% in size; growth read by luminescence after 48 h
Cruzain Triton = blocks cruzain activity in presence of Triton detergent; purified cruzain, Z-FR-AMC fluorescence, 0.01% Triton; Potency, µM, inactives show max response, negative = inhibition, most hits filed as inhibitors; P25779; AID 1478; 0.43% of 200,000 active;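 note: plate controls were neutral wells for no effect and buffer without enzyme for full effect; nearly all actives have a fitted effect of over 40% in size; top concentration of the series not given in the record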
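Detergent-containing run (0.01% Triton X-100) in acetate buffer pH 5.5 with 5 mM DTT: enzyme at 1.5 nM final, 15 min compound preincubation at room temperature, then 2 uM Z-FR-AMC substrate. Activity taken as 60 s fluorescence increase at 360/450 nm.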
2A StopGo = lowers the luciferase signal of an FMDV 2A StopGo reporter. human cells with a luciferase reporter of 2A StopGo recoding; control for the full effect not named in the record. Potency, µM (doses to about 57.9 µM), without a hit: at the highest dose signal change, negative = less light. 1.2% of 410,000 active; active = well fitted falling curve with a large enough effect; inconclusive = small, poorly fitted or top-dose-only effect; inactive = no such curve, though single readings can be large or run the other way; tested in HEK293T cells; note: % is set by controls: 0 for no effect and ±100 for the full control effect; nearly all actives have a fitted effect of over 45% in size; luciferase light after 4 h
* marks the source's active call; other numbers are inactive results; ? = inconclusive; · = no result given; & = joins results of further samples; [ ] = dose if it differs, or a comment. Unless noted, calls come from the whole dose curve; as a rule, active = well fitted curve in the direction sought with a large enough effect; inconclusive = small, poorly fitted or top-dose-only effect, or another doubt; inactive = no such curve, though single readings can be large; an effect the other way counts as inactive or inconclusive. Potency is the fitted concentration of half-maximal effect.

SMILES	Cruzain inh noDet	Lassa entry inh	Marburg entry inh	RE007 growth inh	NS1 function inh	SARS PLpro yeast	Cruzain Triton	2A StopGo
CCOC(=O)c1c(NC(=O)C2COc3ccccc3O2)sc2c1CC(C)(C)NC2(C)C (stereo not given)	-5.0%	?	?	3.7%	-11.7%	-21.9%	-8.2%	-22.9%
CC(NC(=O)COC(=O)CSCc1ccccc1)c1ccccc1 (stereo not given)	·	·	-0.5%[46.1 µM]	3.2%	-38.2%	-0.9%	·	9.6%
O=C(Cc1ccccc1)NCCSCc1ccco1	8.3%	0.0%	4.0%	0.1%	-14.9%	-5.4%	-0.9%	·
CC1CCN(CCOc2cccc(Br)c2)CC1	6.2%	?	?	-4.7%	15.2%	-11.2%	1.9%	10.1%
COc1ccc(OCC(=O)NC2CC(C)(C)NC(C)(C)C2)cc1	-2.3%	0.5%	-5.0%	-1.6%	6.4%	9.7%	0.6%	·
COc1ccc(CCn2c(=O)[nH]c3cc(C(=O)NCCN4CCOCC4)ccc3c2=O)cc1OC	-1.6%	2.3%	3.3%&3.3%	-16.7%	12.9%	-2.9%	1.0%	-15.1%
Cc1cccc(CSc2nc(-c3cccc(C)c3)nc3c2Cc2c(CO)cnc(C)c2O3)c1	7.9%	15.5%[46.1 µM]	·	·	·	·	-5.4%	-19.7%
CCC(C)NC(=O)c1ccc(Cn2c(=O)c3cccn3c3cccnc32)cc1 (stereo not given)	1.8%	-9.4%[46.1 µM]	·	·	·	·	-1.3%	-3.3%
COc1cccc(CN2c3ccccc3-c3nc(SCC(=O)Nc4ccccc4Cl)ncc3S2(=O)=O)c1	15.8µM*	-23.5%[46.1 µM]	?	·	·	·	-2.8%	-18.2%
Cc1nn(CC(=O)O)c(C)c1N	·	-7.9%	5.5%[46.1 µM]	4.2%	3.3%	0.5%	·	5.8%
CC(NCc1ccc(Cl)cc1)C(O)c1ccccc1 (stereo not given)	-9.7%	21.7%	?	-0.1%	11.7%	-2.3%	3.9%	·
CC(=O)N1c2ccc(S(=O)(=O)N3CCC(C(=O)Nc4ccc(F)cc4)CC3)cc2CC1C (stereo not given)	·	-8.1%[46.1 µM]	-23.8%[46.1 µM]	0.7%	-6.6%	-3.1%	·	-28.5%

Results in SARS PLpro yeast and 2A StopGo, for some of the entries so far:
Molecule	SARS PLpro yeast	2A StopGo
CC(=O)N1c2ccc(S(=O)(=O)N3CCC(C(=O)Nc4ccc(F)cc4)CC3)cc2CC1C (stereo not given)	-3.1%	-28.5%
CC(NCc1ccc(Cl)cc1)C(O)c1ccccc1 (stereo not given)	-2.3%	·

Other structures follow.
SMILES	Cruzain inh noDet	Lassa entry inh	Marburg entry inh	RE007 growth inh	NS1 function inh	SARS PLpro yeast	Cruzain Triton	2A StopGo
CC(C)(C)OC(=O)N1CCC(C(=O)N2CCCCCC2)CC1	8.2%	7.4%	-9.7%	19.4%	-7.9%	5.4%	-1.7%	-15.7%
O=C(Nc1ccc(N2CCCCC2)c(C(=O)O)c1)c1ccco1	-12.8%	14.3%	15.2%[46.1 µM]	1.1%	5.6%	3.2%	-0.1%	21.2%
Cc1cccc(N2CCN(C(=O)NC3CCCCC3)CC2C)c1 (stereo not given)	·	·	·	5.6%	-5.4%	-3.7%	·	?
Cn1ncc(Br)c1NC(=O)Nc1ccc(OC(F)(F)F)cc1	·	?	5.0%[46.1 µM]	-9.6%	-8.0%	-0.9%	·	-17.2%
Cc1ccccc1OCC(=O)N1CCN(CCc2ccccn2)CC1	3.1%	-2.3%[46.1 µM]	0.4%[46.1 µM]	·	·	·	-1.2%	1.2%
CCc1n[nH]c(=S)n1/N=C/c1ccc(NC(C)=O)cc1	·	?	1.1%	2.2%	3.3%	1.0%	·	5.0%
CN(C)S(=O)(=O)c1cccc(NC(=O)COc2ccccc2C(=O)NCc2ccccc2)c1	·	?	?	8.9%	·	-1.6%	·	?
Nc1scc(-c2ccncc2)c1Cl	-2.7%	17.3%	23.3%	?	-84.1%	-52.8%	-7.2%	34.7%[activator]
CN1CCN(c2cccc3c2C(=O)c2ccccc2C3=O)CC1	-4.9%	13.1%	-35.2%	1.7%	5.3%	-18.0%	-4.3%	?
COc1ccc(-n2cnc3cc(NS(=O)(=O)c4ccccc4)ccc32)cc1	-18.4%	?	?	-7.9%	6.9%	9.4%	-5.6%	·
COc1ccc(C2CC(c3cccc(C)c3)n3ncnc3N2)cc1 (stereo not given)	2.5%	·	·	-6.2%	1.9%	5.7%	-2.2%	?
O=C(c1cc(=O)[nH]c2ccccc12)N1CCN(Cc2ccc3c(c2)OCO3)CC1	·	0.3%	4.0%	8.0%	·	-0.4%	·	-5.3%

Entries of single compounds, quoted from the list:
Cn1ncc(Br)c1NC(=O)Nc1ccc(OC(F)(F)F)cc1 across the screens: Cruzain inh noDet = ·; Lassa entry inh = ?; Marburg entry inh = 5.0%[46.1 µM]; RE007 growth inh = -9.6%; NS1 function inh = -8.0%; SARS PLpro yeast = -0.9%; Cruzain Triton = ·; 2A StopGo = -17.2%
COc1ccc(-n2cnc3cc(NS(=O)(=O)c4ccccc4)ccc32)cc1 across the screens: Cruzain inh noDet = -18.4%; Lassa entry inh = ?; Marburg entry inh = ?; RE007 growth inh = -7.9%; NS1 function inh = 6.9%; SARS PLpro yeast = 9.4%; Cruzain Triton = -5.6%; 2A StopGo = ·
CC(C)(C)OC(=O)N1CCC(C(=O)N2CCCCCC2)CC1 across the screens: Cruzain inh noDet = 8.2%; Lassa entry inh = 7.4%; Marburg entry inh = -9.7%; RE007 growth inh = 19.4%; NS1 function inh = -7.9%; SARS PLpro yeast = 5.4%; Cruzain Triton = -1.7%; 2A StopGo = -15.7%

(list continues)
SMILES	Cruzain inh noDet	Lassa entry inh	Marburg entry inh	RE007 growth inh	NS1 function inh	SARS PLpro yeast	Cruzain Triton	2A StopGo
Cc1ccc(S(=O)(=O)NC(=O)Nc2ccc(OC(F)F)cc2)cc1	·	·	·	0.0%	4.2%	0.2%	·	-6.1%
Brc1c(CSc2nc3ccccc3o2)nc2ncccn12	-3.5%	22.9%	24.0%[46.1 µM]	5.1%	-120.6%	-7.1%	-4.3%	40.1%[activator]
CCCCOc1ccc(C(=O)N2CCCC2)cc1	3.5%	?	?	8.8%	-6.9%	-10.7%	6.0%	24.3%
Cc1cc(Nc2cc(F)ccc2C)nc(-n2nc(C)cc2C)n1	1.8%	?	·	·	·	·	2.1%	-16.8%
Cc1cccc(NC(=O)c2ccc(S(=O)(=O)N3CC(C)OC(C)C3)cc2)n1 (stereo not given)	·	-22.4%[46.1 µM]	-13.2%	-2.8%	·	-2.4%	·	-29.8%
O=C(NC(=S)NC1CCCC1)c1ccccc1Br	-13.6%	?	1.7%	·	?	27.8%	-6.5%	-10.1%
CN(C)C(=O)c1c2c(nc3ccccc13)-c1ccccc1CC2	4.1%	13.5%	-27.3%[46.1 µM]	-24.7%	2.2%	0.4%	0.8%	-9.4%
C=CCn1c(COc2ccc(F)cc2)nnc1SCC(=O)NC1CCCC1	·	-2.9%	23.4%	4.4%	·	-1.9%	·	-17.7%
O=[N+]([O-])c1ccc(/C=N/n2c(-c3cccnc3)n[nH]c2=S)cc1	?	7.3%	?	-20.0%	5.5%	-9.1%	-11.3%	?
O=C(CN1CCOCC1)Nc1ccccc1Cl	7.8%	0.7%	-0.8%	12.4%	0.8%	7.5%	0.1%	-7.7%
CCOc1ccc(NC(=O)COc2ccc(C(=O)NC3CCCc4ccccc43)cc2OC)cc1 (stereo not given)	?	?	0.6%	1.2%	-7.5%	0.0%	0.4%	-16.4%
O=C(COC(=O)c1ccccc1Nc1ccccc1F)c1ccccc1	·	-26.7%	-8.7%[46.1 µM]	-2.3%	-0.7%	-2.9%	·	31.7%
CCOc1ccc(S(=O)(=O)N2CCN(S(=O)(=O)c3ccc(C)c(C)c3)CC2)cc1	·	28.9%[46.1 µM]	-11.9%[46.1 µM]	39.4%	5.3%	-0.8%	·	-1.0%
CCCCN1C(C(=O)c2ccccc2)=C(OC(C)=O)c2ccccc2S1(=O)=O	3.4%	?	?	·	·	·	-9.9%	?
Cc1noc(C)c1C(=O)Nc1nc2ccc(Cl)cc2s1	·	·	·	-25.6%	-22.2%	-14.8%	·	-9.4%
CCCCOC(=O)c1ccc(NC(=O)/C=C/c2cccs2)cc1	2.3%	?	-23.8%	0.7%	-56.2%	-50.9%	-6.9%	7.4%
O=C(Cn1cc(SCc2c(F)cccc2Cl)c2ccccc21)N1CCCC1	17.2%	-18.4%[46.1 µM]	·	·	·	·	-2.3%	17.9%
Cc1cc(C)n2nc(SCC(=O)NC3CCCC(C)C3C)nc2n1 (stereo not given)	·	·	·	-1.4%	7.4%	7.7%	·	-5.9%
COc1ccc(C(=O)C2CCCN(Cc3cnc(N4CCCC4)s3)C2)cc1OC (stereo not given)	·	·	·	1.5%	-0.2%	0.1%	·	-7.2%
CC(=O)C1=C(O)C(=O)N(c2ccc(S(N)(=O)=O)cc2)C1c1ccccc1F (stereo not given)	2.8%	-3.0%	24.8%	-13.6%	-0.7%	0.7%	-2.2%	-10.7%
CC1(C)Cc2cccc(OCC(=O)N3CCN(c4ccc(F)cc4)CC3)c2O1	·	-16.1%	?	5.1%	·	0.6%	·	-10.8%
Cc1cc(N2CCN(C)CC2)nc2ccc(NC(=O)CCC(=O)N3CCN(c4ccc([N+](=O)[O-])cc4)CC3)cc12	·	-6.8%[46.1 µM]	?	-27.7%	-10.6%	-1.5%	·	-17.3%
O=C(C[n+]1ccccc1)Nc1ccc(Oc2ccccc2)cc1	·	-11.1%[46.1 µM]	15.2%[46.1 µM]	-25.8%	3.3%	-0.3%	·	-3.5%
Cc1oc(-c2ccccc2)nc1CS(=O)CC(=O)NC1CCCCCC1 (stereo not given)	·	·	·	4.0%	?	1.0%	·	63.1%[activator]

Source: PubChem BioAssay (National Center for Advancing Translational Sciences (NCATS))
